MgrA DNA FP = modulators of Staphylococcus aureus MgrA DNA binding | 0.13% of 84,000 active | AID 602314 | fluorescence polarization | inhibition, %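 (about 10 µg/mL by stock and volumes)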;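 active = above 50% in either of two replicates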;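 also: 0% = protein plus DNA without compound and 100% = DNA alone without protein; higher means less MgrA bound to DNA so lower polarization; one replicate is shown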
Sa helicase inh = blocks Staphylococcus aureus DNA helicase. purified S. aureus helicase, fluorescence unwinding assay; about half of the hits fall short of the stated cut. inhibition, %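 (tested at about 80 µM)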. 0.05% of 120,000 active. AID 485395;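 active = both duplicates at 50% or more, or one of them with a favoured structure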;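 also: 0% = mean of negative control wells and 100% = mean of positive control wells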
The depositor's hits bear a star.

What do the screens show for `CN1CCC(N(C)CC(O)COC2CCCc3ccccc32)CC1` (configuration not stated)?
Sa helicase inh: -5

How did Cc1cccc(N2CCN(CCNC(=O)C3CCN(c4nc5cccnc5s4)CC3)CC2)c1C do in these assays?
Sa helicase inh: -6

What do the screens show for `CCOC(=O)/C(=N\Nc1ccccc1Cl)N(C)C1CCS(=O)(=O)C1` (configuration not stated)?
Sa helicase inh: 25

Results for Cc1onc(-c2ccccc2Cl)c1C(=O)NCC1CCCO1 (configuration not stated) ?
MgrA DNA FP: -1.4; Sa helicase inh: 8

What do the screens show for `Cc1ccsc1CNC(=O)c1sccc1Cl`?
MgrA DNA FP: -0.9

How did CN1CCOCCOCCN(C)C1=O do in these assays?
MgrA DNA FP: -4.8; Sa helicase inh: 10

How did CC(C)CC(NC(=O)c1ccc(C23CC4CC(CC(C4)C2)C3)cc1)C(=O)NCc1cccnc1 (configuration not stated) do in these assays?
MgrA DNA FP: 1.6; Sa helicase inh: 9

What do the screens show for `c1ccc2[nH]c(Cc3nc4ccccc4s3)nc2c1`?
Sa helicase inh: 19

How did COc1ccc(C2Oc3ccccc3C3CC(c4ccc(Br)cc4)=NN32)cc1 (configuration not stated) do in these assays?
MgrA DNA FP: -2.5

What do the screens show for `Cc1cc(C(=O)OCC(=O)OC2CC(C)CCC2C(C)C)c(C)o1` (configuration not stated)?
Sa helicase inh: -13

How did C=CCNC(=O)CCc1cc(OC)c(OC)c(OC)c1 do in these assays?
Sa helicase inh: -9

Results for Cc1cc(NS(=O)(=O)c2ccc(N3Cc4ccccc4C3=NC(=O)c3cccc(S(=O)(=O)N(C)C)c3)cc2)no1 ?
Sa helicase inh: 17

Filtered by structure, the compounds so far containing an aryl methoxy group.
How did COc1ccc(C2Oc3ccccc3C3CC(c4ccc(Br)cc4)=NN32)cc1 (configuration not stated) do in these assays?
MgrA DNA FP: -2.5

How did C=CCNC(=O)CCc1cc(OC)c(OC)c(OC)c1 do in these assays?
Sa helicase inh: -9

Next section:
Results for O=C(Cn1c(=O)sc2ccccc21)Nc1ccccc1 ?
MgrA DNA FP: 7.6; Sa helicase inh: -3

What do the screens show for `O=C(NCCCn1ccnc1)c1cc(C(=O)C2CC2)c[nH]1`?
MgrA DNA FP: -2.8

What do the screens show for `CC1=C(C#N)C(C(F)(F)F)(C(F)(F)F)N=C(c2cccnc2)N1`?
Sa helicase inh: 9

How did Cc1cccc(NC(=O)CN2C(=O)C3C4C=CC(C4)C3C2=O)c1 (configuration not stated) do in these assays?
MgrA DNA FP: -2.8; Sa helicase inh: 5

What do the screens show for `C=CCn1c(SCc2nc(N)nc(N(C)C)n2)nnc1-c1cccnc1`?
Sa helicase inh: 7

Results for CC(C)Cn1c(SC/C(O)=C(\C#N)C(=O)NCc2ccccc2)nc2ccccc21 ?
Sa helicase inh: -5

What do the screens show for `CN(CCCc1[nH]nc(N)c1C#N)c1nc(-c2cccs2)nc2ccccc12`?
Sa helicase inh: 26

How did CC(=O)N/C(=C/c1ccccc1)C(=O)N1CCc2ccccc21 do in these assays?
MgrA DNA FP: -0.6; Sa helicase inh: -9

What do the screens show for `Cc1oc2cc(O)cc(O)c2c(=O)c1-c1ccccc1`?
MgrA DNA FP: -1.1

How did CCCC(=O)NCc1cn2ccsc2n1 do in these assays?
MgrA DNA FP: 0.3; Sa helicase inh: 10

What do the screens show for `CCOC(=O)c1cnn(C)c1-n1cccc1`?
MgrA DNA FP: 0.1

How did Cc1c(OCC(=O)C(C)(C)C)ccc2c3c(c(=O)oc12)CCC3 do in these assays?
MgrA DNA FP: 3.3; Sa helicase inh: -21

4 records picked at random from those above, as already listed:
What do the screens show for `C=CCn1c(SCc2nc(N)nc(N(C)C)n2)nnc1-c1cccnc1`?
Sa helicase inh: 7

How did CC(=O)N/C(=C/c1ccccc1)C(=O)N1CCc2ccccc21 do in these assays?
MgrA DNA FP: -0.6; Sa helicase inh: -9

What do the screens show for `O=C(NCCCn1ccnc1)c1cc(C(=O)C2CC2)c[nH]1`?
MgrA DNA FP: -2.8

What do the screens show for `CN(CCCc1[nH]nc(N)c1C#N)c1nc(-c2cccs2)nc2ccccc12`?
Sa helicase inh: 26

Next part
How did Oc1ccccc1C=NCc1csc2ccccc12 do in these assays?
MgrA DNA FP: 1.9

Results for CC(C)Cn1cnc2sc3c(c2c1=N)CCCC3 ?
Sa helicase inh: -8

Results for CC1=C(C(=O)OC(C)C(C)(C)C)C(c2ccc(O)cc2)NC(=O)N1 (configuration not stated) ?
MgrA DNA FP: 0.6; Sa helicase inh: 2

What do the screens show for `O=C(c1cc2ccc3cccnc3c2[nH]1)N1CCc2ccccc21`?
Sa helicase inh: -21

What do the screens show for `CC(C)c1ccc(OC(=O)C2COc3ccccc3O2)cc1` (configuration not stated)?
MgrA DNA FP: -1.5; Sa helicase inh: 6

What do the screens show for `N#CC1=C(N)Oc2nc(-c3ccccc3)[nH]c2C1c1ccc(OCC(N)=O)cc1` (configuration not stated)?
MgrA DNA FP: -0.8; Sa helicase inh: 8

What do the screens show for `COC(=O)CC1=NN(c2ccccc2)C(=O)/C1=C/N(C)C`?
MgrA DNA FP: -2.3; Sa helicase inh: 1

How did CCn1cc(S(=O)(=O)CC(=O)Nc2ccccc2)c2ccccc21 do in these assays?
Sa helicase inh: 13

How did COc1ccc(C(=O)OCC(=O)N(C)C)cc1 do in these assays?
Sa helicase inh: -1

What do the screens show for `COc1ccc(NC(=O)/C(C#N)=C/C=C/c2ccco2)cc1`?
MgrA DNA FP: 1.6; Sa helicase inh: 3

What do the screens show for `C/C(=N/O)c1ccc(OCCO)cc1`?
MgrA DNA FP: -2.5

What do the screens show for `O=C1NC(=O)c2cc(NC(=O)C3COc4ccccc4O3)ccc21` (configuration not stated)?
Sa helicase inh: 13

What do the screens show for `Cc1cc(NCc2ccco2)c2ccccc2n1`?
MgrA DNA FP: -2.1; Sa helicase inh: 8

Results for CC1CCN(CC(C)OC(=O)c2cccs2)CC1 (configuration not stated) ?
Sa helicase inh: 6

What do the screens show for `COCCCN=C1NC(=O)C(CC(=O)Nc2cc(Cl)ccc2Cl)S1` (configuration not stated)?
MgrA DNA FP: -10

What do the screens show for `Cc1ccc(-n2cc(C(=O)c3cc(C)ccc3O)cc(C#N)c2=O)cc1`?
MgrA DNA FP: -1.0; Sa helicase inh: -90

Results for CCOC(=O)c1sc(SC)c2c1CC/C(=C\N(C)C)C2=O ?
MgrA DNA FP: 14

What do the screens show for `O=C(O)c1c2ccccc2[nH]c2c1oc1cc(=O)ccc12`?
MgrA DNA FP: 26; Sa helicase inh: -34

How did O=c1ccc(-c2ccc(S(=O)(=O)NCCCN3CCCCCC3)s2)n[nH]1 do in these assays?
Sa helicase inh: -9

What do the screens show for `CC1CCN(C(=O)CSc2nnc(Cc3ccccc3)o2)c2ccccc2S1` (configuration not stated)?
Sa helicase inh: -8

How did CCc1cccc2c(C#N)cn(CCOc3ccccc3OC)c12 do in these assays?
MgrA DNA FP: -0.4; Sa helicase inh: 7

How did O=C(OCC(=O)N(Cc1ccccc1)Cc1ccccc1)c1ccc2ccccc2n1 do in these assays?
MgrA DNA FP: -0.6; Sa helicase inh: 7

How did O=C(NCc1cccnc1)C1CCN(c2nnc(-n3cccc3)s2)CC1 do in these assays?
Sa helicase inh: 25

Results for Cc1cccnc1N/C=C1/CCCCC1=O ?
MgrA DNA FP: -1.3; Sa helicase inh: 1

How did Cc1ccc(N2C3=C(C(=O)CC(C)(C)C3)C(c3cccs3)C3=C2CC(C)(C)CC3=O)cc1C do in these assays?
MgrA DNA FP: 0.5; Sa helicase inh: 11

What do the screens show for `CCCOc1ccc(C2NC(=O)NC(C)=C2C(=O)OCCc2ccccc2)cc1OC` (configuration not stated)?
MgrA DNA FP: -1.3

What do the screens show for `O=C(COC(=O)c1ccc(F)cc1)NC(c1ccccc1)c1ccccc1`?
MgrA DNA FP: -1.9; Sa helicase inh: -11

How did CCOc1ccccc1C(=O)N1CCOCC1 do in these assays?
MgrA DNA FP: 6.6; Sa helicase inh: 8

Results for O=C1CN(c2ccccc2)C(=Nc2ccccc2)S1 ?
MgrA DNA FP: 2.1; Sa helicase inh: -2

How did C=CCn1c(=N)n(CC(O)COc2ccc(OC)cc2)c2ccccc21 (configuration not stated) do in these assays?
Sa helicase inh: -13

What do the screens show for `CCC1CCCCN1C(=O)CSC1=NN2CCCC(=O)N=C2S1` (configuration not stated)?
Sa helicase inh: -13

What do the screens show for `FC(F)Sc1nnc(-c2ccccc2)c2ccccc12`?
Sa helicase inh: 10

What do the screens show for `COC(CNS(=O)(=O)c1ccc(S(=O)(=O)NCc2ccccc2)cc1)OC`?
MgrA DNA FP: -1.5; Sa helicase inh: 6

Results for C=Cn1c(=N)n(C)c2ccccc21 ?
MgrA DNA FP: -0.8; Sa helicase inh: 6

Results for CCN(CC)C(=O)/C=C/c1cn(-c2ccccc2)nc1-c1cccs1 ?
MgrA DNA FP: 0.2; Sa helicase inh: -1

Results for COCc1nc2ccccc2n1Cc1ccccc1C ?
Sa helicase inh: -4

How did CN(C)CP(=O)(O)CCn1c2ccccc2c2ccccc21 do in these assays?
MgrA DNA FP: 2.5; Sa helicase inh: 1

How did CC(C)c1ccc(C2NC(=O)NC2=O)cc1 (configuration not stated) do in these assays?
Sa helicase inh: -12

How did Cc1c(Cl)cccc1NC(=S)NCc1cccnc1 do in these assays?
MgrA DNA FP: -0.7

Results for COC(=O)c1ccccc1OCC(=O)Nc1ccc(C)cc1C ?
MgrA DNA FP: -0.1; Sa helicase inh: -18

How did CC(C)(CO)NC(=O)COc1ccc(Cl)cc1 do in these assays?
MgrA DNA FP: 4.2; Sa helicase inh: 5

How did COc1ccc(C2CC(c3ccc(Br)cc3)=NN2C(=O)CCCC(=O)O)cc1 (configuration not stated) do in these assays?
MgrA DNA FP: -0.2

How did O=C(Nc1ccc(C(=O)N2CCOCC2)cc1)Nc1ccc(Cl)cc1Cl do in these assays?
MgrA DNA FP: -0.8; Sa helicase inh: 7

How did CCOC(CN(Cc1ccc(OC)c(OS(=O)(=O)c2ccc(C)cc2)c1)S(=O)(=O)c1ccc(C)cc1)OCC do in these assays?
MgrA DNA FP: -2.9

Results for CCc1ccc(/C=C2\NC(=S)N(C3CCCCC3)C2=O)cc1 ?
MgrA DNA FP: 2.0; Sa helicase inh: 3

What do the screens show for `O=C(O)c1cc(Br)c(Br)s1`?
MgrA DNA FP: 1.6

What do the screens show for `OCC12COC(c3ccccc3)N1C(c1ccccc1)OC2` (configuration not stated)?
MgrA DNA FP: -1.9; Sa helicase inh: -2

How did COc1cc(/C=N/N2CCOCC2)ccc1OC(=O)c1ccco1 do in these assays?
Sa helicase inh: -1

The last 2 entries of the part above open the next one:
What do the screens show for `OCC12COC(c3ccccc3)N1C(c1ccccc1)OC2` (configuration not stated)?
MgrA DNA FP: -1.9; Sa helicase inh: -2

How did COc1cc(/C=N/N2CCOCC2)ccc1OC(=O)c1ccco1 do in these assays?
Sa helicase inh: -1

How did Cc1cc(=O)n(-c2ccc(Cl)c(Cl)c2)[nH]1 do in these assays?
MgrA DNA FP: -2.1

How did CC(=O)NCc1ccc(C(=O)CSc2nnc3n2CCCCC3)s1 do in these assays?
Sa helicase inh: 13

What do the screens show for `N#Cc1ccccc1CSc1nc2ccccc2c(=O)n1CC1CCC(C(=O)NCc2ccco2)CC1` (configuration not stated)?
Sa helicase inh: -6

Results for CSc1sc(C(=O)Nc2cccc(C(F)(F)F)c2)cc1S(=O)(=O)C(C)C ?
MgrA DNA FP: -0.6

What do the screens show for `Cc1c(C#N)c(N=CN(C)C)c(C(=O)c2ccccc2)n1-c1ccccc1`?
MgrA DNA FP: 1.4; Sa helicase inh: 4

What do the screens show for `COc1ccc(-n2c(N)c(-c3nc4ccccc4s3)c3nc(C#N)c(C#N)nc32)cc1`?
MgrA DNA FP: 0.5; Sa helicase inh: -135

How did COc1ccc(CNc2nc3ccccc3n2C)cc1OC do in these assays?
MgrA DNA FP: -0.8; Sa helicase inh: -20

How did CCN1CCN(CC(=O)NCc2ccc(Cl)cc2)CC1 do in these assays?
MgrA DNA FP: -5.3; Sa helicase inh: -5

How did COc1ccc(NC(=O)c2cnc3ccccn3c2=O)cc1 do in these assays?
Sa helicase inh: -16

Results for O=C(CSc1nnc2sc3ccccc3n12)N1N=CCC1c1ccccc1 (configuration not stated) ?
MgrA DNA FP: 0.1; Sa helicase inh: 15

What do the screens show for `CC1(C)NC(=O)N(CCC#N)C1=O`?
Sa helicase inh: -13

How did CCOC(=O)c1sc(SC)c2c1CCC/C2=N/OC do in these assays?
MgrA DNA FP: 1.5

How did CCC(CC)NC(=O)CSc1nnc(Cc2ccccc2)o1 do in these assays?
Sa helicase inh: 1

How did O=C(COc1ccc2ccccc2c1)N1CCNCC1 do in these assays?
MgrA DNA FP: -1.0; Sa helicase inh: 0

How did CN(C(=O)C1=CC(c2ccc(F)cc2)=NS(=O)(=O)N1C)C1CCCCC1 do in these assays?
Sa helicase inh: -9

Results for CCOC(=O)c1c(NC(=O)c2cc3ccccc3oc2=O)sc(C(=O)CC)c1C ?
MgrA DNA FP: -1.0

Results for Cc1nn(-c2ccccc2)c2c1C(=O)CC(c1ccco1)C2 (configuration not stated) ?
MgrA DNA FP: -5.4; Sa helicase inh: -1

Results for Cc1cc(C)nc(N(C#N)CC(=O)N2c3ccccc3Sc3ccc(Cl)cc32)n1 ?
MgrA DNA FP: -0.6; Sa helicase inh: 5

Results for Cc1cc2cc(CNC(=O)/C=C\c3ccccc3)ccc2[nH]1 ?
MgrA DNA FP: 0.9; Sa helicase inh: 21

What do the screens show for `CC(=O)NC12CC3(C)CC(C)(CC(C)(C3)C1)C2`?
MgrA DNA FP: -0.3; Sa helicase inh: 14

What do the screens show for `COc1ccc(CN2C(=O)C3CC=CCC3C2=O)cc1F` (configuration not stated)?
Sa helicase inh: -3

Results for NC(=O)c1nnc2c3c(-c4ccccc4)c(-c4ccccc4)nnc3nn2c1N ?
Sa helicase inh: -141

What do the screens show for `CC(C)(C)OC(=O)NC1CCN(C(=O)Nc2ccccc2)CC1`?
Sa helicase inh: -11

Bioassay records deposited in PubChem by ICCB-Longwood Screening Facility, Harvard Medical School.

These rows are one share of the data, so the mix of outcomes need not match the whole.
